UUG fidelity: modulators of start codon recognition fidelity in yeast; S. cerevisiae UUG-firefly luciferase reporter, luminescence/redox ratio; activity score, % at 18.7 µM; 0.13% of 350,000 active; AID 602363;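 active = replicate mean at a twofold rise or more, about +100% in these data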;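 also: firefly luciferase made from a UUG start codon reports start codon fidelity; reporter light over untreated wells divided by growth signal over untreated wells; some hits fall short of that in this replicate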
MT1-MMP act inh: blocks activation of human MT1-MMP; AID 651647; 0.061% of 360,000 active; GFP/RFP ratio change, % at 20 µM; HT1080 RFP-PRO-GFP cells, GFP/RFP ratio fluorescence, overnight; percent of plate control window, DMSO zero;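 active = GFP/RFP ratio change of at least 30% with cell ATP level not reduced by more than half and red fluorescence within 50% of control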; also: strong numbers were not always called active
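Assay system: HT1080 RFP-PRO-GFP cells. Benchmarks: DMSO vehicle wells and RFP-L50D-GFP reporter cell wells. Times: overnight cell settling, then overnight compound exposure, 37 °C, 5% CO2. Compound: 20 µM single dose, 1% DMSO. Read-out basis: GFP/RFP fluorescence ratio.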
PABP polyA inh: blocks human PABP binding to poly(A) RNA; inhibition, % at 35 µM; fluorescence polarization; AID 2014; 1% of 290,000 active; P11940;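 active = 50% or more with normal probe brightness, or confirmed in later tests; inconclusive = above 50% with abnormal brightness, or retests that disagree; inactive = below 50% or failed in later tests; about a fifth of its hits are not listed in these tables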;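 also: calls also rest on retests at 20 µM and on dose response follow-up; controls were probe without protein and protein plus probe with vehicle; some compounds called inactive have numbers as strong as hits; many hits fall short of the cut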
Env fusion inh: blocks HIV Env-driven cell-cell fusion | HeLa-JRFL Env/CEM21 cell fusion, luciferase | AID 651610 | 1.1% of 360,000 active | inhibition, % at 12.3 µM;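 active = mean replicate inhibition score of at least 50 and every replicate individually at or above 50; inconclusive = only one of the two criteria met; inactive = mean below 50 and not all replicates reaching 50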;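 also: 0% = plate neutral controls and 100% = maraviroc near 300 nM; one replicate is shown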
CSC inhib: cancer stem cell inhibition; cancer stem cell-like cells viability, luminescence; inhibition, % at 7.5 µM; 1.1% of 300,000 active;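 active = mean at 75% or more and at least half the replicates too; inconclusive = mean and replicates disagree; tested in HMLE shEcad cells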;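 also: 0% = median of negative and 100% = median of positive control wells; the first replicate is given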
eIF4H inh: inhibitors of RNA binding by human eIF4H | Q15056 | eIF4H fluorescence polarization binding assay | inhibition, % at 35 µM | 0.94% of 290,000 active | AID 2012;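 active = 50% or more with normal probe brightness, or confirmed in later tests; inconclusive = above 50% with abnormal brightness, or retests that disagree; inactive = below 50% or failed in later tests; about a fifth of its hits are not listed in these tables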;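 also: calls also rest on retests at 20 µM and on dose response follow-up; 0% = protein and probe with vehicle and 100% = probe without protein; strong numbers were not always called active; many hits fall short of the cut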
Rce1 inhib: blocks yeast Ras-converting enzyme | Q03530 | 0.27% of 290,000 active | calls only | yeast membranes, quenched prenylated peptide cleavage fluorescence;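 active = fall in fluorescence gain of 50% or more versus controls, with final raw signal at or below 3038400; inconclusive = same 50% fall but final raw signal above 3038400; inactive = fall in fluorescence gain under 50%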;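 also: plate controls were neutral control wells for no effect and wells lacking membranes for full effect; tested at 10 µM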
Target sequence (Q03530 whole entry, looked up): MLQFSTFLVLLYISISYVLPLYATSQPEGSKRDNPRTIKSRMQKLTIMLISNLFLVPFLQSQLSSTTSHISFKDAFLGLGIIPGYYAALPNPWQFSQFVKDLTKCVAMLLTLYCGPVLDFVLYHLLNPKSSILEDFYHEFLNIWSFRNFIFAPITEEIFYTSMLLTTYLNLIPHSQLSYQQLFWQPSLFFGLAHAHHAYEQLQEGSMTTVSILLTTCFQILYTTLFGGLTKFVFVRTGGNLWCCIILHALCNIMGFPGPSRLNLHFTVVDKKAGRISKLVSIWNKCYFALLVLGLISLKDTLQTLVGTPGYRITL
eIF4H inh retest: further read-out of eIF4H inh, marked with its call; inhibition, %; compound at 20 µM; confirmation average;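 mean of two retest wells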
PABP polyA inh retest: further read-out of PABP polyA inh, marked with its call; inhibition, %; compound at 20 µM; confirmation repeats;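 mean of two retest wells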
MT1-MMP act inh RFP: further read-out of MT1-MMP act inh, marked with its call; RFP signal change, %; measured here: RFP expression control read;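 0 = vehicle wells; hits needed this value within 50% of zero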
* hit, by the source's call; i = inactive; ? = inconclusive; . = no result given; & = joins results of further samples; [ ] = remark or other dose.

SMILES	UUG fidelity	MT1-MMP act inh	MT1-MMP act inh RFP	PABP polyA inh	Env fusion inh	CSC inhib	eIF4H inh	Rce1 inhib	others
Nc1ccccc1SC1CC(=O)N(c2ccc3c(c2)OCCO3)C1=O (stereo not given)	.	0	-1	2	-23	-2	-1	i
COc1cc(/C=N/NC(=S)NCC2CCCO2)cc(OC)c1OC (stereo not given)	.	4	3	0	-3	-5	-3	i
CCOC(=O)c1sc(NC(=O)CSc2nnnn2-c2ccc(C)cc2C)nc1C	-1	0	3	-1	.	13	0	i
Cc1cc(C)n(CC(O)COc2ccc(Cl)cc2Cl)n1 (stereo not given)	-5	2	-1	-3	-148	-15	-14	.
CC1(NC(=O)C23CC4CC(CC(C4)C2)C3)CCS(=O)(=O)C1 (stereo not given)	-1	-2	7	0	-16	.	2	i
Cc1sc2nc(NCCO)[nH]c(=O)c2c1C	-13	0	2	-5	-28	-16	-12	i
Cc1ccc2[nH]c(C)c(/C=N/Nc3nc4ccccc4s3)c2c1	-30	-18	-8	-2	-32	-15	5	i
O=C(COC(=O)c1ccc([N+](=O)[O-])o1)NCCc1ccccc1	-4	-3	2	.	13	11	.	.
Cc1ccc(NC(=O)NC(=O)CN2C(=O)NC3(CCc4ccccc43)C2=O)c(C)c1 (stereo not given)	-9	1	1	6	-27	11	-2	i
CCOC(=O)C1(C)CCCN(C(=O)COc2ccccc2)C1 (stereo not given)	-6	1	6	.	1	.	.	.
O=C(N/N=C/c1ccncc1)c1cc([N+](=O)[O-])cc([N+](=O)[O-])c1O	-6	6	7	24	.	-16	76*	i	eIF4H inh retest=101*;PABP polyA inh retest=34
Cn1c(C2=C(O)CN(c3ccc4c(c3)OCCO4)C2=N)nc2ccccc21	-39	2	2	-2	.	-4	-11	i
C/C(O)=C(/C#N)c1nc2ccccc2[nH]1	-20	0	-2	4	.	.	2	.
Nn1c(SCc2ccc(C(=O)O)cc2)nnc1-c1ccc(Cl)cc1Cl	-11	-2	0	19	1	-1	6	i
CCOc1cc(CNc2ccc(N3CCN(C(C)=O)CC3)cc2)cc(Br)c1OC	.	5	-2	-8	.	-20	-4	i
COc1ccc(NC(=O)Nc2ccc3c(c2)C(=O)N([C@H](C)CO)C[C@H](C)[C@@H](CN(C)S(=O)(=O)c2cccs2)O3)cc1	7&-7	8	1	.	-5[16.7 µM]	-10	.	.
CC(OC(=O)CCCN1C(=O)c2ccccc2C1=O)C(=O)Nc1ncc(Cl)cc1Cl (stereo not given)	-12	0	-1	4	-9	-18	6	i
Cc1snc(SCC(=O)c2ccc(Cl)cc2)c1C#N	-14	-2	1	5	-27	-2	0	i
COc1ccccc1OCC(=O)NNC(=O)CSC(=S)N1CCCC1	-11	3	5	.	.	-8	.	.
O=C(NN1C(=O)c2ccccc2NC12CCCCC2)c1ccccc1	-15	-3	-3	-9	6	3	5	i

2 neighbouring entries already listed, quoted:
SMILES	UUG fidelity	MT1-MMP act inh	MT1-MMP act inh RFP	PABP polyA inh	Env fusion inh	CSC inhib	eIF4H inh	Rce1 inhib	others
COc1ccccc1OCC(=O)NNC(=O)CSC(=S)N1CCCC1	-11	3	5	.	.	-8	.	.
O=C(NN1C(=O)c2ccccc2NC12CCCCC2)c1ccccc1	-15	-3	-3	-9	6	3	5	i

Continuation.
SMILES	UUG fidelity	MT1-MMP act inh	MT1-MMP act inh RFP	PABP polyA inh	Env fusion inh	CSC inhib	eIF4H inh	Rce1 inhib	others
COc1ccc(NC(=O)CN(C)C2CCCCC2)cc1Cl	.	4	-1	3	-6	-16	-7	i
CC1CCN(C(=O)CSc2nc3ccccc3s2)CC1	-10	-1	4	36	-103	.	38	i
O=C(CSC1=NCCS1)Nc1ccc2ccccc2c1	.	1	1	-16	19	14	-9	i
CCOc1ccccc1N	-13	1	9	.	.	6	.	.
Cc1ccc(NC(=O)CCCNC(=O)c2ccc(Cl)cc2)nc1	-13	1	0	-2	.	-7	-12	i
COc1cccc(NC(=O)CSc2nnc(NC(=O)C3CC3)s2)c1	-5	1	-1	13	1	15	-6	i
c1ccc(-n2ncc(-c3nn[nH]n3)n2)cc1	.	4	1	19	.	-8	11	i
Cc1nn(C)cc1C1Nc2ccccc2C(=O)N1O (stereo not given)	-20	4	1	4	-27	-5	-4	i
Cc1ccc(-n2c(Cc3cccn3C)nnc2SCC(=O)N2CCN(c3ccccc3)CC2)cc1	2	-2	2	-4	-3	23	10	i
CCS(=O)(=O)c1ccc(O)c(NC(=O)NC2CCCCC2)c1	-9	-2	-1	-5	6	-10	-13	i
C=CCNc1n[nH]c(=S)s1	-20	-4	-1	.	7	.	.	.
O=C(O)CC(NC(=O)C1CCCCC1)c1cc([N+](=O)[O-])ccc1Cl (stereo not given)	39	2	-1	-7	13	-17	4	i
CC(=O)Cn1ncc(N2CCOCC2)c(Br)c1=O	.	3	6	6	8	-8	3	i
COc1ccc(/C=N/NC(=O)CC2N=C(Cc3ccccc3)NNC2=O)cc1OC (stereo not given)	.	4	0	12	7	.	-3	i
COc1ccc(CCNc2nc(C)nc3c2nnn3Cc2ccccc2)cc1OC	7	5	-9	2	10	-24	0	i
CN(C)c1cc2c(cc1NS(=O)(=O)c1ccccc1)n(C)c(=O)n2C	-18	0	-2	8	19	-13	4	i
CC(C)NC(=O)c1cc2nc(-c3ccco3)cc(C(F)(F)F)n2n1	-6	1	9	-2	.	.	-6	i
O=C(Nc1ccccc1SC(=O)c1ccccc1)c1ccccc1	-25	-3	0	.	-47	.	.	.
Cc1c(-c2ccccc2)c(P(=O)(N2CCOCC2)N2CCOCC2)c2ccccn12	.	1	4	22	.	-3	8	i
Cc1cccc(OCC(O)CN2CCN(CCN3C(=O)c4cccc5cccc(c45)C3=O)CC2)c1C (stereo not given)	.	7	-6	62	-22	35	-1	i	eIF4H inh retest=19;PABP polyA inh retest=1
CNC[C@@H]1Oc2c(NS(C)(=O)=O)cccc2C(=O)N([C@@H](C)CO)C[C@H]1C	0&-6	-3	0	.	-9[16.7 µM]	-12	.	.
Cc1ccccc1C(=O)NC1CCCCCCC1	6	-1	-1	6	-57	-8	15	i
CSCCC(NC(=O)/C(=C/c1ccc(F)cc1)NC(C)=O)C(=O)O (stereo not given)	-22	-2	5	0	-18	3	7	i
CO/N=C/NC(=O)c1c(OC)ccnc1Oc1cccc(C(F)(F)F)c1	-18	0	9	-5	.	-2	-9	i
NNC(=O)c1cc(C23CC4CC(CC(C4)C2)C3)nc2ccccc12	-22	5	-5	4	5	19	5	i
Cn1c(CNS(=O)(=O)c2ccc(F)cc2)n[nH]c1=S	-18	4	6	-11	-8	-3	-5	.
O=C(Nc1ncc(Cc2ccccc2)s1)C1COc2ccccc2O1 (stereo not given)	-3	2	-6	-10	.	-6	-6	i
COc1cc(NC(=O)CSc2nncn2C)c(C)cc1[N+](=O)[O-]	-19	-1	1	-12	-19	1	-4	i
O=C(NNC(=O)c1cccc(-n2cccc2)c1)c1ccccc1	-15	2	2	.	-12	-2	.	.
CSc1ccc(C(=O)C2CCCN(C(=O)CN3CCOC3=O)C2)cc1 (stereo not given)	-14	-6	2	5	-6	-7	8	i
CCC(C)(C(=O)NC1CCCCC1)N(C)C(=O)c1ccc2c(c1)OCO2 (stereo not given)	33	0	3	-7	3	-3	5	i
Cc1ccc(NC(=O)CN2C(=O)N/C(=C\c3cccn3-c3cccc(C(=O)O)c3)C2=O)cc1	-5	5	7	1.5*	.	.	99*	i	eIF4H inh retest=112*;PABP polyA inh retest=80*
COc1ccccc1NC(=O)C(C)n1cnc2c(oc3nc4c(cc32)CCCC4)c1=O (stereo not given)	-7	-4	-4	6	-6	-8	-10	i
O=C(/C=C/c1ccc([N+](=O)[O-])cc1)OCC(=O)N1c2ccccc2Sc2ccccc21	3	2	-1	3	14	11	7	i
COc1ccc(/C=C2\Sc3ccc(C(=O)N4CCCC4)cc3N(C)C2=O)cc1OC	0	6	-5	.	.	-5	.	i
COc1ccc(OCC(=O)Nc2ccc3c(c2)nc(CN2CCCC2)n3C)cc1	-32	3	5	4	.	14	4	i
CC(=O)N1CCN(Cc2nc3cc(NC(=O)c4ccc(F)cc4)ccc3n2C)CC1	-15	6	-2	1	13	-7	1	i
O=C(NC(=S)NCc1cccnc1)c1cc2ccccc2o1	-21	0	2	3	-15	-4	-5	i
COc1ccc(C(CNC(=O)c2cccc(S(=O)(=O)Nc3cccc(C)c3)c2)N2CCOCC2)cc1 (stereo not given)	1	-9	-5	.	-7	.	.	i
Clc1ccc(-c2nc(/C=N/N3CCOCC3)c3ccccn23)cc1	.	-4	-2	10	.	-12	7	i
O=C1CCC(C(=O)O)(c2ccccc2)C1 (stereo not given)	.	.	.	82	.	-1	-9	i	eIF4H inh retest=3;PABP polyA inh retest=10
Cc1ccc(/C=N/NC(=O)c2cc3c(ccc4ccccc43)o2)cc1[N+](=O)[O-]	-13	-32	4	1	.	-14	-10	i
COc1ccc(C(=O)Nc2cc(C(C)=O)c(C)oc2=O)cc1	-20	-3	2	5	1	-7	-10	i
COc1ccc(C(=O)N2CCC(C(=O)Nc3ccccc3C)CC2)cc1OC	.	.	.	-3	4	15	-6	i
Clc1ccc(Cn2cnc3ccccc32)cc1	-20	-5	-17	6	23	8	-23	i
Cc1ccc(/C=C/c2ccc(=O)n(Cc3ccccc3Cl)n2)cc1	.	-6	-9	9	.	24	-2	i
O=c1/c(=C\c2cccnc2)sc2nc3ccccc3n12	-8	-2	2	-2	.	.	-18	i
Clc1ccc(-c2ccc(/C=N/Nc3nncc(-c4ccccc4)n3)o2)cc1	3	-1	-7	-9	-60	-7	0	i
COC(=O)c1c(NC(C)=O)sc2c1CCCCC2	.	2	3	-15	-17	-7	-6	i
COc1ccc(C(O)P(=O)(OC(C)C)OC(C)C)c(OC)c1 (stereo not given)	.	-5	-1	10	-7	-7	0	i
COc1cccc(C(=O)Nc2c(F)cccc2F)c1	-13	0	5	-3	-12	0	-14	i
Cc1onc(-c2ccccc2)c1C(=O)OCCOc1cccc(Cl)c1	-6	1	-5	1	75*	74	4	i
COc1ccc(CNC(=O)CN(C(=O)CCC(=O)Nc2nccs2)c2cccc(C)c2)cc1	-10	-1	-3	1	-9	.	-3	i
COc1ccccc1N(C(=O)CNS(=O)(=O)c1ccccc1)C(C(=O)NCc1ccco1)C(C)C (stereo not given)	6	0	8	-3	.	.	6	i
Cc1cc(C)n2nc(C(=O)N/N=C/c3ccc(O)cc3)nc2n1	-8	1	6	0	5	-5	-2	i
CC1=C(C(N)=O)C(c2cccnc2)n2nc(SCc3ccccc3Cl)nc2N1 (stereo not given)	-13	-1	-2	24	.	-9	0	i
O=C(O)COCC(=O)N1CCCN(c2nccc(C(F)(F)F)n2)CC1	-8	-3	0	-4	.	-4	-5	i
COC(=O)c1ccc2nc(-c3cccc(N)c3)cn2c1	-60	7	-1	-16	15	-2	-6	i
O=C(CCCCCN1C(=O)CCC1=O)Nc1ccc(Cl)c(C(F)(F)F)c1	-13	-2	-12	-3	48	6	-8	i
O=C(Nc1ccccc1Cl)C1C2CCCCC21 (stereo not given)	-21	0	3	.	-6	.	.	.
Cc1cc(OCCCn2ccnc2)cc(C)c1Cl	0	-3	-5	13	-85	9	13	i
COc1ccc(NC(=O)Nc2ccc(CC(=O)O)cc2)cc1	.	1	2	2	-7	-6	-4	i
O=C(CN1CCSCC1)N/N=C/c1cccc(Cl)c1	.	4	0	?	-11	-3	?	i
